TRPV1 PAM: HTS Assay for Compounds that Act as Potentiators of the Vanilloid Receptor 1 | Transient receptor potential cation channel subfamily V member 1 (Homo sapiens), Q8NER1 | TRPV1-expressing cells, Fluo-8 calcium influx, capsaicin EC20 potentiation; host cell line not named in the record; control for the full effect not named in the record | AID 540277, 2011 | potentiation, % at 8.33 µM | 320,000 tested, 0.02% active; active means potentiation above 80%; inconclusive means 30% to 80%; inactive means below 30%; also: 0% is about no effect
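TRPV1-expressing cells were cultured overnight at 35.5C and loaded with Fluo-8 calcium dye for 40 to 90 min at room temperature. After a 10 s baseline, compound was added and calcium influx was read kinetically for 3 min (ex 480/em 520 nm).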
Sfp PPTase inh: qHTS Assay for Inhibitors of Bacillus subtilis Sfp phosphopantetheinyl transferase (PPTase). Biochemical Sfp PPTase activity, qHTS. Potency, µM, for the others: max response, negative = inhibition, most hits filed as inhibitors. 310,000 tested, 3.5% active. AID 1490, 2009; active = well fitted inhibition curve with a large enough effect; inconclusive = small, poorly fitted or top-dose-only effect, or another doubt; inactive = no such curve, though single readings can be large or run the other way;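 also: the enzyme is Sfp with the accession as filed and its product quenches rhodamine fluorescence; potency is read from the fitted curve at half-maximal effect; 0% = enzyme reaction without inhibitor and -100% = no enzyme wells; top concentration of the series not given in the record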
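With Hepes-Na pH 7.6 buffer containing 10 mM MgCl2, Sfp (15 nM) modified BHQ-2-YbbR (12.5 uM) using rhodamine-CoA (5 uM). Two reads 30 minutes apart at 525/598 nm yielded each well's rate.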
D2 potentiator: Beta-Arrestin HTS for Positive Allosteric Modulators of the Human D2 Dopamine Receptor: Potentiators; D(2) dopamine receptor (Homo sapiens), P14416; DiscoveRx D2 beta-arrestin cells, luminescence, 90 min; 100% = 57 uM dopamine signal; potentiation, % (test concentration not listed); 360,000 tested, 0.23% active; AID 624464, 2012; active = potentiation of 50% or more; inconclusive = 30% to 50%; inactive = 30% or less;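 also: compound concentration not given in the record; tested on top of an EC20 dose of dopamine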
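PathHunter D2 cells, attached overnight at 37 deg C, received compound in DMSO plus dopamine at EC20 (50 nM final) for 90 min at 37 deg C. Beta-arrestin recruitment was read as luminescence after 1 h with detection reagent at ambient temperature.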
Six1-Eya2 blk: qHTS Assay for Inhibitors of the Six1/Eya2 Interaction; Homeobox protein SIX1 (Homo sapiens) + Protein phosphatase EYA2 (Homo sapiens), …; AlphaScreen GST-Six1/His-Eya2 binding, biochemical; hits give low values; control for the full effect not named in the record; activity change, % (no concentration beside the values); 360,000 tested, 0.56% active; in the data active = activity change below about -65%; inconclusive = about -30% to -65%; inactive = above about -30%; also: % is scaled to controls: 0 for no effect and ±100 for the full control effect; compound concentration not given in the record
Target sequence (O00167 whole entry, looked up): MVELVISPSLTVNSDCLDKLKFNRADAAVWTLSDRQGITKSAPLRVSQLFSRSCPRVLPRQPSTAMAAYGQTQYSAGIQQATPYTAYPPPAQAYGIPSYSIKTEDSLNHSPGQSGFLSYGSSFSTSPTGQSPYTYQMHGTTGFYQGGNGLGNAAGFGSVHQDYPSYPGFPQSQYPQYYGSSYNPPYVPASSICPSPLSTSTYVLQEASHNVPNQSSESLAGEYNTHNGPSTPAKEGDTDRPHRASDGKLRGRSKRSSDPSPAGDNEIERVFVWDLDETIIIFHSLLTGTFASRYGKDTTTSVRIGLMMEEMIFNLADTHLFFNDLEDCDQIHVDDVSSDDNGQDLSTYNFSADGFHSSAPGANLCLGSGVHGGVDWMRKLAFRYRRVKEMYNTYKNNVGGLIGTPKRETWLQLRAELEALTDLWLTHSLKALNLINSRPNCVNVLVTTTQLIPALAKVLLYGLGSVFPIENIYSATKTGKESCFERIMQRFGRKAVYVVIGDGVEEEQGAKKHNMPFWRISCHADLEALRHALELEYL
Target sequence (Q15475 whole entry, looked up): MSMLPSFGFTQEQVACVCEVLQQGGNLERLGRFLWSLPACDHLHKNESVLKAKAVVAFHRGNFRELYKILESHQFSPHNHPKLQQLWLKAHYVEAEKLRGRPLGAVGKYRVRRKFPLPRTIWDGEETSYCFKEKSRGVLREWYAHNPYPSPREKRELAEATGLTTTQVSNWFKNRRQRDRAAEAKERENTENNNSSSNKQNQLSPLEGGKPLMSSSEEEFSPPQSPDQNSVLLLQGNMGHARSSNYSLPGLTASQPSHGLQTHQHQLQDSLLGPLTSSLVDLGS
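AlphaScreen luminescence read after one hour at 37 °C in darkness. Pin-transferred compounds met GST-Six1 and His-Eya2 protein (5X stock 250 nM/500 nM) plus glutathione donor and Ni-chelate acceptor beads (5X, 50 ug/mL).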
D2 ag: Beta-Arrestin HTS for Positive Allosteric Modulators of the Human D2 Dopamine Receptor: Agonists; D(2) dopamine receptor (Homo sapiens), P14416; activation, % (no concentration beside the values); DiscoveRx PathHunter D2 beta-arrestin, luminescence, 90 min; 100% = 57 uM dopamine signal; AID 624465, 2012; 360,000 tested, 0.084% active; in the data active = activation above about 40%; inconclusive = about 15% to 40%; inactive = below about 15%; also: compound concentration not given in the record; the text of the record calls up to 30% inactive
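Agonist mode: compounds alone added to overnight-plated D2 PathHunter cells for 90 min at 37 C, with 57 uM final dopamine (EC100) defining full response. Beta-arrestin recruitment detected by chemiluminescent reagent, read after 1 h at ambient temperature.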
CtBP-E1A inh: qHTS Assay for Inhibitors of the CtBP/E1A Interaction | AlphaScreen GST-E1A/His-CtBP binding, 1536-well; hits give low values; control for the full effect not named in the record | activity change, % (test concentration not listed) | 340,000 tested, 0.49% active; in the data active means activity change below about -65%; inconclusive means about -30% to -65%; inactive means above about -30%; also: % is scaled to controls: 0 for no effect and ±100 for the full control effect; compound concentration not given in the record
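In 5 uL wells, 23 nL compound meets equimolar GST-E1A and His-CtBP (5X stock 125 nM each) for 2 h, 37 °C. Beads (5X, 50 ug/mL) then 1 h, 37 °C, dark.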
PINK1 expr mod: A Quantitative High throughput Screen to Identify Chemical Modulators of PINK1 Expression | Potency, µM (highest dose often 76.6 µM), for the others: at the highest dose activation (PINK1 increase), hits mostly activators | AID 624263, 2012 | 410,000 tested, 0.2% active | PINK1 immunofluorescence, high-content cytometry, 24 h; active = well fitted activation curve with a large enough effect; inconclusive = small, poorly fitted or top-dose-only effect; inactive = flat fitted curve, though single readings scatter; cell line not stated here;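 also: potency is read from the fitted curve at half-maximal effect; % of control where 0% means no effect; nearly all actives have a fitted effect of over 65% in size; a mitochondrial uncoupler was the plate control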
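Cells are seeded, rested 12 hours, then given compound at five concentrations or DMSO for 24 hours. After fixation, blocking and antibody staining, PINK1 amount and mitochondrial localization are scored; CCCP serves as control.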
* hit, by the source's call; ? = inconclusive; · = not tested or not shown; & = joins results of further samples; [ ] = another dose, or the depositor's remark.

item	SMILES	CtBP-E1A inh	Sfp PPTase inh	Six1-Eya2 blk	TRPV1 PAM	PINK1 expr mod	D2 potentiator	D2 ag
1	Cc1nn(C)cc1CNC(=O)Nc1ccc(Cl)c(Cl)c1	-1	8%	0	-3	1.0%	-29	-5.1
2	C=CC[C@@H](CC(=O)N[C@@H](CO)Cc1ccccc1)C(=O)NC[C@@H](OC(=O)[C@@H](CC=C)CC(=O)OC(C)(C)C)c1ccccc1	·	·	-4	·	?	-9	-2.4
3	Cc1ccccc1NC(=O)CCSc1nnnn1-c1ccccc1	42	-12%	0	-3	10%[38.3 µM]	-4	-0.8
4	Cc1c(Br)c(-c2n[nH]c(=S)n2Cc2ccco2)nn1C	-3	-13%	1	11	1.2%	-1	0.5
5	O=C(NCCCO)c1ccc(CSc2nc3ccccc3c(=O)[nH]2)cc1	-2	9%	-5	?	0.3%	-6	0.4
6	COc1ccc(CN2CCN(Cc3ccc(OC)c(OC)c3OC)CC2)cc1	-1	?	-1	-6	-0.4%	-7	-0.3
7	CCCn1cnc2c(SCc3ccccc3Cl)nc(N)nc21	0	·	-5	·	6.6%	11	-2.6
8	CC(C)CC(=O)C(=O)O	0&0	·	6&4	·	-0.3%&0.3%	0&-6	-3.0&-4.8
9	CCOC(=O)C(C)/C(C)=N/NC(=O)c1cc2ccccc2cc1O (stereo not drawn)	-2	1%	-2	?	-0.6%	-12	-1.4
10	COc1ccccc1Nc1ccc([N+](=O)[O-])cc1N	-18	-12%	-19	9	2.2%	-6	-7.7
11	O=C(O)C1CCCCC1C(=O)N1CCN(S(=O)(=O)c2ccc(F)cc2)CC1 (stereo not drawn)	4	-7%	6	-10	0.9%	-1	-1.0
12	O=C(O)C1C2CCC(C2)C1C(=O)N1CCCC1 (stereo not drawn)	5	45µM*	5	1	0.5%	1	-4.0
13	Cc1cccc2c1N(CCOc1ccc(C(C)(C)C)cc1)C(=O)C2=O	-2	-4%	-3	-7	-1.3%	-36	-9.8
14	Cc1nc2scc(C)n2c(=O)c1S(=O)(=O)NCC1CCN(Cc2ccc(Cl)cc2)CC1	-11	20%	-8	-3	2.4%	-33	-1.7
15	O=C(CNC(=O)c1ccc(N2C(=O)c3ccccc3C2=O)cc1)OCC(=O)c1ccc(Cl)cc1	7	6%	11	3	3.4%	1	-0.6
16	O=C(CNC(=O)c1ccc(Cl)cc1Cl)OCCOc1ccccc1	-9	·	6	7	1.0%	21	-3.0
17	CCN(CC)CCNC(=O)Cc1c(C(=O)O)n(CC)c2ccccc12	4	15%	5	4	-6.8%[38.3 µM]	-12	-1.3
18	CCCSc1ccc([C@H]2N[C@@](C)(C(=O)OC)[C@H]3C(=O)N(C)C(=O)[C@@H]23)cc1	3	·	2	-31	-1.0%	-14	-3.3
19	O=C(O)C1C2C=CC(C2)C1C(=O)NCCCn1ccnc1 (stereo not drawn)	1	8%	-2	3	2.2%	-17	-1.8
20	CCc1cccc(NC(=O)CCCn2nc(C)c3c(C)n(-c4ccccc4)nc3c2=O)c1	5	2%	2	1	-0.3%	-4	2.8
21	O=S(=O)(/C=C/c1ccccc1)c1ccccc1	5	-15%	9	-3	-1.3%	-5	0.3
22	OCCCc1cn(CC2CCCCC2)nn1	1	10%	18	20	1.6%	-2	-2.7
23	COc1ccc(CN(Cc2ccc(C(=O)O)cc2)C(=S)Nc2cccc(C)c2)cc1OC	-1	-11%	-6	5	-1.2%	5	0.2
24	CS(=O)(=O)c1ccc(Nc2nc(C(N)c3ccccc3)cs2)cc1 (stereo not drawn)	-2	·	1	·	-0.7%	-9	2.3
25	O=C(O)CCc1nn2c3ccccc3nc2n(-c2ccccc2)c1=O	5	21%	-1	-5	4.9%[38.3 µM]	-4	-1.1
26	Cc1ccc(S(=O)(=O)N2CCOCC2)cc1NS(=O)(=O)c1ccc(F)c(F)c1	-6	·	2	4	-0.7%	0	-1.6
27	CCOc1ccc(NC2=CC(=O)CC(c3ccco3)C2)cc1 (stereo not drawn)	·	-4%	4	-3	-1.0%	-8	-4.4
28	O=C(N[C@H](CO)Cc1ccccc1)[C@H]1O[C@@H](n2ccc(=O)[nH]c2=O)[C@H](O)[C@@H]1O	-20	·	9	·	-0.2%	-5	-3.9
29	O=c1[nH]c2cc3c(cc2cc1CN(Cc1cccs1)Cc1nnnn1Cc1ccco1)OCCO3	-9	20µM*	-23	4	0.8%	-13	-3.0
30	COc1ccc(NC(=O)CCn2c(=O)c3cccn3c3ccccc32)c(OC)c1	-23	15%	-12	?	-1.1%&2.3%	?	-0.5

Part of the list above with just PINK1 expr mod, Sfp PPTase inh and Six1-Eya2 blk.
no.	Molecule	PINK1 expr mod	Sfp PPTase inh	Six1-Eya2 blk
20	CCc1cccc(NC(=O)CCCn2nc(C)c3c(C)n(-c4ccccc4)nc3c2=O)c1	-0.3%	2%	2
21	O=S(=O)(/C=C/c1ccccc1)c1ccccc1	-1.3%	-15%	9

Carrying on.
item	SMILES	CtBP-E1A inh	Sfp PPTase inh	Six1-Eya2 blk	TRPV1 PAM	PINK1 expr mod	D2 potentiator	D2 ag
31	Clc1ccccc1CN(Cc1ccco1)Cc1nnnn1C1CCCC1	4	?	0	8	0.0%	-11	-4.0
32	Cc1ccc(NC(=O)Cn2cnc3c(=O)n(C)c(=O)n(C)c32)c(C)c1	-1	11%	0	-18	1.2%	-17	-4.8
33	CCc1ccc(CNCCNCC(C)O)cc1 (stereo not drawn)	-8	23%	-1	-13	2.0%[38.3 µM]	-8	-1.2
34	Cc1ccc(C(=O)N(c2ccccc2)C2CC(C)N(C(=O)c3ccco3)c3ccccc32)cc1 (stereo not drawn)	-6	7%	-17	-17	9.5%	3	-5.2
35	COc1ccc(S(=O)(=O)N2c3cc(Cl)ccc3Oc3nc4ccccc4nc32)cc1	2	22%	18	4	3.7%	-7	-1.9
36	CC1=C(C(=O)Nc2ccc(C)cc2)C(c2ccc(C)o2)C2=C(CC(C)(C)CC2=O)N1 (stereo not drawn)	0	-5%	0	9	2.0%	-16	-5.8
37	COC(=O)[C@]12CCCCC=C1N(Cc1cccc3ccccc13)C(=O)[C@H](CC(=O)NCc1cccc3ccccc13)C2	-12	·	-18	·	0.4%	·	·
38	COc1cccc(/C=C/C(=O)OCC(=O)NCc2ccco2)c1OC	-3	-8%	-9	-17	-1.7%	-1	1.6
39	O=C(CN1CCCCC1)Nc1scc2c1c(=O)oc1ccccc12	·	9%	3	4	0.6%	1	-2.5
40	CCC(Oc1ccc(C)c(C)c1)C(=O)O (stereo not drawn)	0	19%	3	12	-0.2%	-6	0.6
41	CCC(CC)C(=O)N1CC(=O)Nc2ccc(F)cc2C1c1ccccc1 (stereo not drawn)	·	6%	9	-19	4.1%	-6	-2.7
42	CC(C)C[C@@H](CN1CCCC1CN1C(=S)NC[C@@H]1Cc1ccc(O)cc1)N1C[C@H](Cc2ccc(O)cc2)N(CC2CCCCC2)C1=S (stereo partly drawn)	-5	·	-6	·	-1.5%	-7	-2.0
43	CCN(CC)S(=O)(=O)c1cccc(C(=O)NC(C)C(c2cccs2)N2CCCC2)c1 (stereo not drawn)	·	17%	-3	-10	-1.5%	24	11
44	Cc1ccc(Oc2cc(C)nc(-c3ccccc3O)n2)cc1	30	?	39	25	9.0%	-12	-3.9
45	Cn1cnc2cc(NCc3ccccc3O)ccc21	·	3%	-2	10	1.9%	-9	-1.8
46	O=C(O)c1cn(-c2ccccc2)nc1-c1cccnc1	1	-3%	-2	9	2.4%[38.3 µM]	-1	-0.2
47	O=C1c2ccccc2C(=O)N1CCCN1C(=O)c2ccccc2C1=O	7	·	3	·	-0.3%	-6	0.6
48	CSc1ccc(CN2CCC2(C)C(=O)Nc2cccc(Oc3ccccc3)c2)cc1 (stereo not drawn)	-6	·	-1	·	5.1%	-5	-4.3
49	O=C(c1ccc2c3c(cccc13)CC2)C1CCCN(Cc2ccncc2)C1 (stereo not drawn)	-15	-6%	-16	-18	-0.6%	-24	-4.0
50	COc1ccccc1-c1oc2ccccc2c1-c1ccc2c(c1)OCO2	3	·	3	1	11%	-9	-2.7
51	Cc1ccc(Oc2ncccc2/C=N/OCc2ccc(Cl)c(Cl)c2)cc1	5	-5%	41	18	13%	-9	2.3
52	CCCN1CCN(CCCNC(=S)Nc2ccc3nc(N4CCN(CC)CC4)cc(C)c3c2)CC1	3	14%	-4	5	1.8%	-21	-1.6
53	CCCCCCn1c(=O)n2n(c1=O)[C@@H]1CN(S(=O)(=O)c3ccc(C)cc3)C[C@]1(O)[C@@H](OC(=O)NCc1ccccc1F)C2	3	·	-3	·	14%	3	-8.0
54	O=C(O)c1cnn(-c2nc(-c3ccc(Br)cc3)cs2)c1C(F)(F)F	·	16%	-9	-9	-1.6%	-13	-0.3
55	O=C1CCCC1C(=O)Nc1ccc2ccccc2c1 (stereo not drawn)	·	8%	-1	-14	2.5%	-24	-6.1
56	NS(=O)(=O)c1ccc(NC(=O)c2cc(-c3ccccc3O)n[nH]2)cc1	-11	13%	-17	-3	6.8%	-8	-0.6
57	COc1ccc(N(Cc2cc3ccccc3[nH]c2=O)S(=O)(=O)c2ccc(C)cc2)cc1	-9	13%	4	18	6.2%	4	-6.1
58	Cc1sc2nc(-c3cccnc3)[nH]c(=O)c2c1-c1ccccc1	-1	45µM*	-4	-5	1.5%	-4	2.7
59	O=C(CCn1nc(-c2ccc(Cl)cc2)ccc1=O)N1CCN(c2ccccn2)CC1	-12	5%	5	0	-0.4%	10	-1.1
60	O=C(c1ccccc1-c1nc(-c2ccccc2Cl)no1)N1CCOCC1	3	18%	2	-5	1.3%	-2	-5.3
61	O=C(Cc1ccc(Br)cc1)NC1CCCCC1	4	4%	3	-18	2.8%	2	0.5
62	O=C(Cn1c2ccccc2c(=O)c2ccccc21)N/N=C/c1cc([N+](=O)[O-])ccc1N1CCCCC1	-11	?	3	-22	11%	7	-1.4
63	C=CCn1c(N)c(C(=O)OCC)sc1=S	-3	-7%	-8	-20	-2.8%	-11	-0.5

Screens deposited in PubChem BioAssay by National Center for Advancing Translational Sciences (NCATS).
